Screening results from PubChem.
HIV TAR-Tat: TAR RNA-Tat peptide displacers, HIV-1, primary screen, biochemical, FRET, FAM/TAMRA-labeled Tat | HIV-1 TAR RNA, Tat peptide displacement FRET; active compounds read high | z-score (concentration not given with the values) | 0.6% of 100,000 active;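 further: score is relative to mean and SD of negative controls; some compounds called inactive have numbers as strong as hits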
CDC25B-CDK2 inh: primary biochemical HTRF screen for blockers of M-phase inducer phosphatase 2 binding to CDK2/cyclin A; 0.72% of 94,000 active; AID 1259370, 2018; P30305+P24941; HTRF CDC25B-CDK2/CyclinA binding, anti-His/anti-Flag; active compounds read high; z-score (no concentration beside the values);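 further: score is relative to mean and SD of negative controls; strong numbers were not always called active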
An asterisk follows results filed as active; . = not tested or not shown.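 How the source made its calls: active means z-score from 3 up in half or more of its runs; inactive means the rest.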

SMILES | HIV TAR-Tat | CDC25B-CDK2 inh
CC1CCCN(CCCNC(=O)C2CCCN(c3ncnc4c3nc3n4CCCCC3)C2)C1 (configuration not stated) | 1.2 | .
COc1ccc(-c2cc3nc(C)cc(NC(C)C)n3n2)cc1OC | 1 | -3.1
Cc1cc(N2CCC(C)CC2)nc2ccccc12 | . | -0.61
O=c1onc(-c2ccccc2)n1-c1cccc(C(F)(F)F)c1 | . | 0.03
CCn1cnc2nc(N)[nH]c(=O)c21 | . | -1.7
COc1cc(Cc2cc(OC)c(C)cc2OC)c(OC)cc1C | . | -0.54
CCOCCOC(=O)C1=C(C)NC2=C(C(=O)CCC2)C1c1cc(OC)c(OC)cc1Br (configuration not stated) | -0.14 | 1.3
COc1ccc(S(=O)(=O)N2CCCCC2C(=O)O)cc1OC (configuration not stated) | . | 1.6
COC(=O)C1=C(OC(=O)COc2ccc3ccccc3c2)c2ccccc2S(=O)(=O)N1C | -0.75 | -1
CN1C=NC(O)(c2ccccc2)c2cc(Cl)ccc21 (configuration not stated) | . | -2.2
O=C(c1cnn(-c2ccccc2)c1-n1cccc1)N1CCN(c2ccc(Cl)cc2)CC1 | 0 | .
CN(CC(=O)N1CCCCC1)S(=O)(=O)c1ccc2c(c1)c(=O)n(C)c(=O)n2C | . | -2
O=c1c(S(=O)(=O)c2ccccc2)cn(Cc2ccccc2)c2cc(N3CCCC3)c(F)cc12 | 2 | .
Cc1cc(C)c2c(-n3cccc3)nn(CCCC(=O)NC(C)C)c2n1 | 0.4 | .
COc1ccc(/C(C)=N/O)cc1CN1CCCC1 | . | -1.1
O=C(c1cc2ccccc2c(=O)o1)N1CCN(c2ccccc2)CC1 | -2.3 | -2.8
N#Cc1c(NC(=O)c2cc3ccccc3c(=O)s2)sc2c1CCCC2 | -1.3 | -1.5
Fc1ccc(N2CCN(Cc3cccn3-c3nnc(N4CCCCC4)s3)CC2)cc1 | 1.1 | .
COc1ccc(/C(O)=C2\C(=O)C(=O)N(CCCN(C)C)C2c2ccc(Cl)cc2)cc1 (configuration not stated) | -0.39 | -1.6
N#Cc1c(NC(=O)CSc2ccccc2)sc2c1CCCC2 | 0.97 | -2.1
CCOC(=O)c1c(NC(=O)c2nn(-c3ccc(Cl)cc3)ccc2=O)sc2c1CCCC2 | -0.2 | -0.82
CC1=C(C(=O)NCCCN2CCCC2)C2(CCN(S(C)(=O)=O)CC2)OC1=O | 1.6 | .
CCC(O)c1nc2ccccc2n1CCOc1cccc(OC)c1 (configuration not stated) | 1.2 | -1.1
CC(=O)N1CCc2cc(S(=O)(=O)NC(C(=O)Nc3nc(C)cs3)C(C)C)ccc21 (configuration not stated) | . | -2.3
CCCc1nc(SC)ncc1C(=O)Nc1cccnc1 | -0.83 | .
COC(=O)C(NC(=O)CCc1nnc2ccc(N3CCCC3)nn12)C(C)C (configuration not stated) | 1.4 | .
COCc1cc(CN2CCOCC2)c(O)c2ncccc12 | 0.31 | 0.81
Cc1cc(SCC(=O)NC2CCCC2)n2nc(C)c(-c3ccc(Cl)cc3)c2n1 | . | -1
O=C(CSCC(=O)Nc1ccccc1)NNC(=O)c1ccccc1 | . | -0.57
COc1n[nH]c(C(=O)O)c1[N+](=O)[O-] | 1 | 0.69
CN1CCN(c2ccc3nnc(CCC(=O)NCCC4=CCCCC4)n3n2)CC1 | 1 | .
O=C(O)c1ccccc1NC(=O)N1c2ccccc2Sc2ccccc21 | 0.95 | -0.74
CC(C)(C)c1ccc(OCc2nn3c(C(F)(F)F)nnc3s2)cc1 | -0.92 | -0.06
N[C@@H](Cn1ccc(=O)c(O)c1)C(=O)O | 0.38 | -2.6
COC(=O)CSc1nc(C)nc(SC)c1C#N | . | -1
COc1ccc(Cc2nc3c4c5c(sc4ncn3n2)C(C)(C)NC(C)(C)C5)cc1 | 1.7 | 0.36
CCNc1ccc(C(=O)O)cc1 | . | -1.6
COc1ccc(C2NN=C3c4[nH]c5ccc(C)cc5c4CCC32)cc1 (configuration not stated) | . | -4.3
c1ccc(-c2[nH]ncc2CN2CCc3ccccc3C2)cc1 | . | -0.36
Nc1cnn(C2OC(COC(=O)c3ccccc3)C(O)C2O)c(=O)n1 (configuration not stated) | . | -1.2
CC(C)CNc1nc(NC(C)(C)C)nc(Oc2ccc(=O)n(-c3ccccc3)n2)n1 | 1.9 | 0.12
Cc1nn(CC(=O)N2CCCCC2)c(=O)c2cccn12 | 1.8 | -1.5
Cc1oc2ncnc(N3CCOCC3)c2c1C(=O)Nc1ccc(N2CCC(C)CC2)cc1 | 0.67 | -0.34
CCOC(=O)CN1C(C(=O)c2ccccc2)=C(OC(=O)C(C)(C)C)c2ccccc2S1(=O)=O | 0.79 | -0.55
Cc1ccc(C(=O)O)c2c1N[C@H](c1ccccc1Cl)C1CC=CC21 (some centres not stated) | -0.39 | -2.7
CC1CCN(CCNS(=O)(=O)c2ccc3c(c2)NC(=O)CCS3)CC1 | 2.6 | .
CSc1ncc(Cl)c(C(=O)Oc2ccccc2Br)n1 | 0.81 | -3
Cc1cc(C(=O)NCCN2CCOCC2)no1 | 2.7 | -0.87
CCC(O)c1nc2ccccc2n1CCCOc1cc(C)ccc1C (configuration not stated) | 0.61 | -0.52
O=C(N/N=C/c1ccco1)c1cc(-c2ccc3ccccc3c2)n[nH]1 | . | -2.5

Next section
SMILES | HIV TAR-Tat | CDC25B-CDK2 inh
Fc1cccc(CN2CCN(Cc3cccc4ccccc34)CC2)c1 | 2.5 | 0.03
CC1CCCC(NC(=O)Cn2c3ccccc3c3cn[nH]c(=O)c32)C1C (configuration not stated) | . | -2.6
CC1CC(C)CN(C(=O)C2CCN(S(=O)(=O)c3ccc4c(c3)C(C)(C)C(=O)N4C)CC2)C1 (configuration not stated) | 1.4 | -1.6
CCOC(=O)N1CCC(NC(=O)c2ccc3nc4ccccc4c(=O)n3c2)CC1 | 0.05 | .
CCc1ccc(-n2nnc(-c3nc(-c4ccncc4)no3)c2N)cc1 | 0.25 | .
O=C(Cn1cnc(S(=O)(=O)N2CCCCC2)c1)N1CCCc2ccccc21 | -0.24 | .
O=C1C2ON(c3ccccc3)C(c3cccs3)C2C(=O)N1c1ccc(Cl)cc1 (configuration not stated) | . | -2.4
CCOc1ccc(S(=O)(=O)[C@H]2CS(=O)(=O)C[C@@H]2N2CCc3ccccc3C2)cc1 | -2.3 | -1
CCOC(=O)c1cc(/C(C)=N/NS(=O)(=O)c2ccc(F)c(Cl)c2)on1 | . | -1.8
CCOc1ccc(N2CSC3=C(C#N)C(c4ccc(SC)cc4)CC(=O)N3C2)cc1 (configuration not stated) | -0.87 | 6.7*
Cc1ccc(-c2nn3c(Cn4cnc5ccccc54)nnc3s2)cc1 | 1 | 0.22
CC1CN(C(=O)NC(=O)c2ccc(F)c(Cl)c2)CC(C)O1 (configuration not stated) | . | -2.5
Cc1cccn2cc(-c3cccc(NS(=O)(=O)c4ccc(F)cc4)c3)nc12 | . | -0.7
CON | 1.2 | .
COc1ccc(NC(=O)Nc2cccs2)cc1Cl | -4 | 4.8
CC(C)(C)NC(=O)c1cc(-c2ccco2)[nH]n1 | -6.7 | .
Cn1c(=O)n(Cc2ccccc2F)c(=O)c2c1nc1n2CCN1c1ccc(Cl)cc1 | 2.1 | .
Cc1ccc2onc(CNC(=O)N3CCN(Cc4ccc5c(c4)OCO5)CC3)c2c1 | -0.05 | .
CCCCC(NC(=O)c1ccccc1)c1nc2ccccc2[nH]1 (configuration not stated) | . | -0.31
Cc1cc(-c2nc(C34CC5CC(CC(C5)C3)C4)cs2)no1 | . | -1.9
O=C(NCc1ccc2c(c1)OCO2)c1ccc(-n2cnc3cccnc32)cc1 | 0.54 | .
O=C(CSc1cn(CC(=O)N2CCOCC2)c2ccccc12)N1CCCCC1 | 0.07 | .
Cn1nnnc1SCCCNCc1cc(Br)ccc1OCc1ccccc1 | 0.01 | -0.56
CC(O)(c1ccccc1)C(CN1CCCCC1)c1ccccc1 (configuration not stated) | -1.1 | -0.72
O=C(CCc1nnc2ccc(N3CCCC3)nn12)Nc1ccccn1 | 1.6 | .

In the list so far, these contain fluorine.
SMILES | HIV TAR-Tat | CDC25B-CDK2 inh
O=c1onc(-c2ccccc2)n1-c1cccc(C(F)(F)F)c1 | . | 0.03
O=c1c(S(=O)(=O)c2ccccc2)cn(Cc2ccccc2)c2cc(N3CCCC3)c(F)cc12 | 2 | .
Fc1ccc(N2CCN(Cc3cccn3-c3nnc(N4CCCCC4)s3)CC2)cc1 | 1.1 | .
CC(C)(C)c1ccc(OCc2nn3c(C(F)(F)F)nnc3s2)cc1 | -0.92 | -0.06
Fc1cccc(CN2CCN(Cc3cccc4ccccc34)CC2)c1 | 2.5 | 0.03
CCOC(=O)c1cc(/C(C)=N/NS(=O)(=O)c2ccc(F)c(Cl)c2)on1 | . | -1.8
CC1CN(C(=O)NC(=O)c2ccc(F)c(Cl)c2)CC(C)O1 (configuration not stated) | . | -2.5
Cc1cccn2cc(-c3cccc(NS(=O)(=O)c4ccc(F)cc4)c3)nc12 | . | -0.7
Cn1c(=O)n(Cc2ccccc2F)c(=O)c2c1nc1n2CCN1c1ccc(Cl)cc1 | 2.1 | .

The list continues.
SMILES | HIV TAR-Tat | CDC25B-CDK2 inh
CC(C)C(=O)N(Cc1ccc(C(C)C)cc1)C1CCS(=O)(=O)C1 (configuration not stated) | . | -1.6
Cc1ccc(S(=O)(=O)OCC(O)CN2CCN(c3ccc(C(F)(F)F)cn3)CC2)cc1 (configuration not stated) | . | -0.2
Cc1c(N2CCN(C(=O)CC(C)C)CC2)c(=O)n(C)c(=O)n1-c1ccccc1 | 1 | .
COc1ccc(CSCC(=O)c2ccc(Cl)c(Cl)c2)c(Cl)c1OC | . | 0.91
Brc1csc(CN2CCc3nc(Nc4ccccc4)ncc3C2)c1 | 1.3 | .
CCOC(=O)C1CCCCN1S(=O)(=O)c1cc2c(cc1C)NC(=O)CO2 (configuration not stated) | 1.7 | .
O=C(c1cccc(O)c1)N1N=C(C2CCCCC2)CC1(O)C(F)(F)F (configuration not stated) | . | -1.4
O=C(Cn1ncc2c([nH]c3ccccc32)c1=O)Nc1cccnc1 | 1.7 | .
O=C(CCN1C(=O)COc2ccccc21)NCCN1CCN(c2ccccc2F)CC1 | . | -2.4
CCCCNc1nc(Nc2ccc(OC)c(Cl)c2)c2cnn(C)c2n1 | -0.23 | .
CCOC(=O)N1CCN(C(=O)CN(C)S(=O)(=O)c2ccc3c(c2)C(C)(C)C(=O)N3C)CC1 | 2.1 | .
CN(C1CCCCC1)S(=O)(=O)c1cccc(N)c1 | 1.6 | 0.19
COc1cccc(C2Nc3cccc4cccc(c34)N2)c1O | 22* | 0.43
Cn1ncc(C(=O)N=S(C)(=O)c2ccc(Cl)cc2)c1[N+](=O)[O-] (configuration not stated) | . | -0.64
O=C(NCc1ccc2c(c1)OCO2)c1ccc2c(Cl)c3c(nc2c1)CCC3 | -1 | -3.2
CC(C)(C)NC(=O)c1cc2nc(-c3ccc(Br)cc3)cc(C(F)(F)F)n2n1 | -0.69 | -0.66
CSc1nc(-c2ccccc2F)nc2c1Cc1c(CO)cnc(C)c1O2 | 0.43 | .
CCc1nnc(SCc2nc(-c3ccc(OC)c(OC)c3)oc2C)c2cc3oc(C)cc3n12 | 1.5 | .
CC(C)Oc1ccccc1C1CC(=O)Nc2c1cnn2-c1nc2ccccc2s1 (configuration not stated) | 2.3 | .
COC(=O)c1ccc(NS(=O)(=O)c2ccc3c4c(cccc24)C(=O)N3)cc1 | -2.3 | -1.6
Cc1nn(S(=O)(=O)c2ccc(F)cc2)c(C)c1S(=O)(=O)N1CCOCC1 | 1 | .
CCCN(CCC)c1ncnc2c1cnn2-c1ccc(C)cc1 | 0.36 | .
CSc1ccc(-c2noc(C3CCCN(S(=O)(=O)c4ccc(Br)cc4)C3)n2)cc1 (configuration not stated) | 1.7 | .
CN(C1CCCCC1)S(=O)(=O)c1ccc2c(c1)OCC(C(=O)N1CCCCC1)O2 (configuration not stated) | 0.32 | .
Oc1ccc(-c2ccccc2)cc1CN1CCN(c2ccccc2)CC1 | . | 0.88
COc1cc(NC(=O)CCS(=O)(=O)c2ccc3c(c2)NC(=O)CS3)cc(OC)c1 | 0.28 | .
CCC1Sc2ccc(S(=O)(=O)Nc3ccc(Cl)cc3)cc2NC1=O (configuration not stated) | -1.6 | .
CCCCNC(=O)c1cnc2sc(N3CCOCC3)nn2c1=O | 0.1 | .
COc1ccc(OC)c(NC(=O)CSCC(=O)O)c1 | . | -0.98
COC(=O)C(C)Sc1ccc2nnc(-c3ccccc3)n2n1 (configuration not stated) | . | -1.8
O=C(Cn1c(=O)oc2cc(S(=O)(=O)N3CCCC3)ccc21)Nc1ccccn1 | 2.2 | 1.2
NNC(=O)COc1ccc(Br)cc1Br | . | 0.2
O=C(CSc1nc2ncccc2o1)Nc1ccc(Cl)cc1 | -2.3 | .
COc1ccc(Cl)c(Cn2c(NCCN)nc3c2c(=O)n(C)c(=O)n3C)c1 | 3.6* | 4.6
COc1ccc(-c2cc(NCc3ccccc3)n3cnnc3n2)cc1 | -0.26 | -0.04
CC(C)Nc1nc(NCCO)nc(N2CCOCC2)n1 | 1.4 | -0.74
CCOC(=O)Nc1ccc(N2CCn3c(nc4cc(Cl)ccc43)C2)cc1 | 0.16 | -2.6
CCOC(=O)c1cn[nH]c1N | . | -2.5
CCOC(=O)C(C)Oc1ccc2c(=O)c(Oc3cccc(C)c3)c(C(F)(F)F)oc2c1 (configuration not stated) | 0.65 | -2
O=C1NC2(CCCCCC2)C(=O)N1CCS(=O)(=O)Oc1ccc(Cl)cc1 | . | -0.73
CC(C)OC(=O)c1ccc(Nc2nc3ccccc3c3nncn23)cc1 | 0.93 | -1.4

Outcome played no part in choosing rows; any-hit rate near 0.87%.
